2A StopGo – lowers the luciferase signal of an FMDV 2A StopGo reporter | Potency, µM (top dose mostly 57.9 µM), inactives show at the top dose signal change, negative = less light | human cells with a luciferase reporter of 2A StopGo recoding; control for the full effect not named in the record | hit rate 1.2% among 410,000; active = well fitted falling curve with a large enough effect; inconclusive = small, poorly fitted or top-dose-only effect; inactive = no such curve, though single readings can be large or run the other way; tested in HEK293T cells; further: on the % scale 0 is the no-effect control and ±100 the full control effect; nearly all actives have a fitted effect of over 45% in size; luciferase light after 4 h
RE007 growth inh – less growth of the S. pombe RE007 Vpr strain; hit rate 0.21% among 360,000; Potency, µM (series often up to 92.2 µM), without a hit: at the top dose activity change, negative = less growth; AID 651644; S. pombe RE007 Vpr strain, BacTiter-Glo ATP luminescence, 24 h; control for the full effect not named in the record; active = well fitted falling curve with a large enough effect; inconclusive = small, poorly fitted or top-dose-only effect; inactive = no such curve, though single readings can be large or run the other way;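 further: on the % scale 0 is the no-effect control and ±100 the full control effect; nearly all actives have a fitted effect of over 50% in size; the assay follows cell death caused by Vpr and the record does not say whether a fall means rescue or toxicity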
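Fission yeast strain RE007, carrying one chromosomally integrated HIV-1 vpr copy, was seeded at OD 0.01 in PMG+AL medium with 23 nL pinned compound. After 24 h at 30 °C and 99% humidity, viability was read by BacTiter-Glo luminescence.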
SARS PLpro yeast – SARS-CoV PLP inhibition in yeast; Potency, µM (titrated, usually from 32.9 µM), for the others: at the highest dose activity, positive = growth rescue; S. cerevisiae expressing SARS-CoV PLpro, growth rescue; control for the full effect not named in the record; hit rate 0.19% among 330,000; AID 485353; active means well fitted rising curve with a large enough effect; inconclusive means small, poorly fitted or top-dose-only effect; inactive means no such curve, though single readings can be large or run the other way; further: 0% is about no effect; nearly all actives have a fitted effect of over 55% in size; growth read by luminescence after 48 h
Numbers without * were called inactive; [ ] = another dose, or the depositor's remark. Potency means the concentration at half of the fitted maximal effect. An excerpt; rates above refer to the full screens.

For Cn1c(N)c(C(=O)CSc2nnc(C3CC3)n2N)c(=O)n(C)c1=O the results were 2A StopGo -5.3%, RE007 growth inh 8.2% and SARS PLpro yeast -3.3%.
For Cc1cc(C(=O)NN=Cc2ccc(-c3ccc(F)cc3)o2)c(C)o1 the results were 2A StopGo -13.6%, RE007 growth inh -1.1% and SARS PLpro yeast -8.5%.
Cc1cc(NC(=O)Cn2c(=O)oc3ccccc32)no1 was read as 2A StopGo -23.6%, RE007 growth inh 23.7% and SARS PLpro yeast 1.6%.
`COc1cc(C(=O)OCC(=O)Nc2ccccc2C(=O)NC2CC2)c([N+](=O)[O-])cc1OC` gave 2A StopGo -19.0%, RE007 growth inh -0.2% and SARS PLpro yeast 0.6%.
`O=C(c1ncn(Cc2ccccc2)c1C(=O)N1CCN(c2ccccc2)CC1)N1CCN(c2ccccc2)CC1` gave 2A StopGo -9.0%, RE007 growth inh -4.7% and SARS PLpro yeast -3.9%.
For O=C(CN(Cc1ccccc1)C(=O)CCl)c1cccc(Br)c1 the results were 2A StopGo inconclusive, RE007 growth inh 17.4% and SARS PLpro yeast -4.2%.
COC(=O)Nc1ccc(S(=O)(=O)N2CCCC(C(=O)NCC3CCCO3)C2)cc1 (configuration not stated) was read as 2A StopGo -6.1%, RE007 growth inh 23.8% and SARS PLpro yeast 2.7%.
For COc1ccc([C@H]2CC(=O)C=C(c3ccc(OC)nc3)C2)cc1 the results were 2A StopGo 10.4%, RE007 growth inh 3.4% and SARS PLpro yeast 1.1%.
For Cc1ccc(N(C)S(=O)(=O)c2cccc(C(=O)N3CCN(Cc4ccccc4)CC3)c2)cc1 the results were 2A StopGo -28.1%, RE007 growth inh 0.8% and SARS PLpro yeast -0.9%.
For COc1cccc(NC(=O)c2cc3c(=O)n4ccccc4nc3n(CC(C)C)c2=N)c1 the results were 2A StopGo -5.5%, RE007 growth inh 7.4% and SARS PLpro yeast -3.0%.
Cc1ccccc1CN(C)C(=O)[C@H](Cc1ccccc1)NC(=O)c1ccco1 was read as 2A StopGo -19.2%, RE007 growth inh 12.0% and SARS PLpro yeast 14.9%.
Cc1ccc(N2C(=O)C3C4CCC(O4)C3C2=O)c(OC(F)F)c1 (configuration not stated) was read as 2A StopGo 3.1%, RE007 growth inh 5.6% and SARS PLpro yeast 1.7%.
`CC(C)c1nnc(NC(=O)C2CCN(S(=O)(=O)c3ccc(-n4cnnn4)cc3)CC2)s1` gave 2A StopGo -8.4%, RE007 growth inh 8.0% and SARS PLpro yeast 10.6%.
`Brc1ccc(-c2csc(N3CCOCC3)n2)cc1` gave 2A StopGo 36.3%[activator], RE007 growth inh -2.3% and SARS PLpro yeast -0.5%.
`COc1ccc(/C=C/C(=O)OCc2cccc([N+](=O)[O-])c2)cc1` gave 2A StopGo -4.0%, RE007 growth inh 19.1% and SARS PLpro yeast -0.9%.
`Cc1ccc(CNC(=O)COC(=O)CN2C(=O)C3CC=CCC3C2=O)cc1` (configuration not stated) gave 2A StopGo -3.7%, RE007 growth inh 6.3% and SARS PLpro yeast -0.2%.
For Cc1cc(N2CCCCC2)nc(-c2ccc(Br)cc2)n1 the results were 2A StopGo 5.7%, RE007 growth inh inconclusive and SARS PLpro yeast -0.7%.
`N/C(=N\OC(=O)/C=C/c1ccccc1)c1ccncc1` gave 2A StopGo 59.6%[activator], RE007 growth inh 12.2% and SARS PLpro yeast -7.4%.
OC(COC(c1ccccc1)c1ccccc1)CN1CCOCC1 (configuration not stated) was read as 2A StopGo -9.1%, RE007 growth inh -11.8% and SARS PLpro yeast 1.4%.
`CCC(C)Sc1cccc(-c2nc3ccc(Cl)cn3c2NCc2ccccc2)c1` (configuration not stated) gave 2A StopGo -8.0%, RE007 growth inh -11.1% and SARS PLpro yeast 0.8%.
For COc1ccc(CN2C(=O)c3ccccc3C2C(=O)NC2CCCC(C)C2C)c(OC)c1 (configuration not stated) the results were 2A StopGo 19.1%, RE007 growth inh -4.3% and SARS PLpro yeast -1.0%.
Screening CN(Cc1ccc(Cl)cc1)C(=O)CCl returned 2A StopGo 25.1µM*, RE007 growth inh -28.9% and SARS PLpro yeast -16.0%.
For O=C(Nc1ccccc1)c1ccccc1CSc1ccccc1 the results were 2A StopGo -8.6%, RE007 growth inh 3.7% and SARS PLpro yeast -15.7%.
For COc1ccc(CCCCCCOCc2ccccc2)cc1 the results were 2A StopGo 18.2%, RE007 growth inh -1.4% and SARS PLpro yeast 5.9%.
Screening CC1CC(C)CN(C(=O)COC(=O)c2ccc([N+](=O)[O-])o2)C1 (configuration not stated) returned 2A StopGo 7.3%, RE007 growth inh -13.3% and SARS PLpro yeast 1.0%.
Screening C=CCC[C@@H](Cc1ccc(F)cc1)C(=O)OC[C@@H]1CCCN1C(=O)[C@@H](CC=C)CC(=O)N(CCO)Cc1ccccc1 returned 2A StopGo 0.0%, RE007 growth inh 0.8% and SARS PLpro yeast -3.8%.
COc1ccc2c(c1)OC[C@H]1[C@H]2N2C(=O)CN(CC3CCCO3)C(=O)[C@@]2(C)[C@H]1c1ccccc1 (some centres not stated) was read as 2A StopGo -10.3%, RE007 growth inh -12.9% and SARS PLpro yeast 0.0%.
Screening COc1cc(SC)ccc1C(=O)N1CCN(c2ccc(O)cc2)CC1 returned 2A StopGo 42.2%[activator], RE007 growth inh -13.6% and SARS PLpro yeast -3.6%.
For CCOC(=O)C1CCN(C(=O)COC(=O)C23CC4CC(CC(C4)C2)C3)CC1 the results were 2A StopGo -15.9%, RE007 growth inh 9.8% and SARS PLpro yeast 2.2%.
`Cc1cn([C@@H](CCCCN)C(=O)NCCCCCCCCCCC(=O)N2CCNCC2)nn1` gave 2A StopGo -9.8%, RE007 growth inh -8.7% and SARS PLpro yeast 1.5%.
`Cc1cccc(C)c1OCC(=O)NNC(=O)CCCn1c(=O)oc2ccccc21` gave 2A StopGo -21.4%, RE007 growth inh 1.9% and SARS PLpro yeast -1.4%.
For Cc1ccc2c(c1)C1CN(C)CCC1N2S(=O)(=O)c1ccccc1F (configuration not stated) the results were 2A StopGo -18.4%, RE007 growth inh -16.6% and SARS PLpro yeast 4.1%.
For COc1ccc([C@H]2CC(=O)C=C(c3ccc(OC)cc3OC)C2)cc1 the results were 2A StopGo 53.7%[activator], RE007 growth inh 15.8% and SARS PLpro yeast 0.0%.
O=C(COC(=O)c1ccc(F)cc1F)Nc1ccc(Cl)cn1 was read as 2A StopGo -4.2%, RE007 growth inh -8.7% and SARS PLpro yeast -8.9%.
For COc1ccc([C@H]2CC(=O)C=C(c3cc(C)ccc3OC)C2)cc1 the results were 2A StopGo -7.9%, RE007 growth inh 10.0% and SARS PLpro yeast -1.8%.
`Nc1c(Cl)cc(C2=NCCn3c2c2ccccc2[n+]3[O-])cc1Cl` gave 2A StopGo -17.1%, RE007 growth inh 0.0% and SARS PLpro yeast 4.2%.
For CNC(=S)NCCc1cc2c(OC)ccc(OC)c2[nH]c1=O the results were 2A StopGo 11.5%, RE007 growth inh 9.8% and SARS PLpro yeast 0.6%.
For COc1ccc(CCC(=O)N2CCN(S(=O)(=O)c3cccc(C(F)(F)F)c3)CC2)cc1OC the results were 2A StopGo -21.2%, RE007 growth inh -5.4% and SARS PLpro yeast 1.4%.
CCOC(=O)[C@@H]1[C@H]2COc3cc(OC)ccc3[C@H]2N2C(=O)N(c3ccc(OC)cc3)C(=O)[C@]12C was read as 2A StopGo -9.5%, RE007 growth inh -1.7% and SARS PLpro yeast 8.2%.
CCCn1nc(C(=O)NNC(=O)CCCOc2ccc(OC)cc2)c2ccccc2c1=O was read as 2A StopGo -7.6%, RE007 growth inh 2.1% and SARS PLpro yeast -1.8%.
`COc1ccc(OC)c(-c2csc(NC(=O)COC(=O)C3CCC3)n2)c1` gave 2A StopGo -10.2%, RE007 growth inh -4.3% and SARS PLpro yeast 0.0%.
COC(=O)C1=C(c2ccc(C(C)=O)cc2)C[C@@H]2CC[C@H]1N2C(=O)NCc1ccco1 was read as 2A StopGo -9.4%, RE007 growth inh 2.0% and SARS PLpro yeast -2.3%.
`CCOc1ccc(NC(=O)CN(C)C(=O)c2c(-c3ccccc3)noc2C)cc1OCC` gave 2A StopGo -18.0%, RE007 growth inh -12.2% and SARS PLpro yeast 4.7%.
`CCN1C(=O)[C@@H]2[C@@H](c3ccc(-c4ccc(OC)cc4)cc3)N3CCCC[C@@]3(C(=O)OC)[C@@H]2C1=O` gave 2A StopGo -2.8%, RE007 growth inh 17.7% and SARS PLpro yeast 3.5%.
`Cc1ccc(NC(=O)CN2CCCC2c2cccn2C)c(Br)c1` (configuration not stated) gave 2A StopGo 43.4%[activator], RE007 growth inh -5.7% and SARS PLpro yeast -4.2%.
CCCN1C(=O)/C(=C/c2ccc3c(c2)OCO3)NC1=S was read as 2A StopGo -12.4%, RE007 growth inh -19.8% and SARS PLpro yeast 5.8%.
Screening CC(C)CC1Nc2ncnc(N3CCN(c4ccccc4)CC3)c2N(Cc2ccc(Cl)cc2)C1=O (configuration not stated) returned 2A StopGo -15.7%, RE007 growth inh 13.1% and SARS PLpro yeast 1.0%.
COc1ccc(C2Nc3ccccc3C(=O)N2NC(=O)c2ccccc2)cc1OC (configuration not stated) was read as 2A StopGo -20.7%, RE007 growth inh 0.7% and SARS PLpro yeast -2.6%.
For COc1ccc(S(=O)(=O)N2CCc3ccccc32)cc1C(=O)NCCc1ccc(S(N)(=O)=O)cc1 the results were 2A StopGo 1.2%, RE007 growth inh 2.3% and SARS PLpro yeast -0.1%.
`Cc1c(C(=O)NCC(C)(C)N2CCOCC2)oc2ccccc12` gave 2A StopGo -1.9%, RE007 growth inh -10.5% and SARS PLpro yeast 1.3%.
`CSc1ccc(CN(C)CC(=O)N(C)CC(=O)Nc2ccccc2Br)cc1` gave 2A StopGo inconclusive, RE007 growth inh -3.6% and SARS PLpro yeast -5.8%.
For C=CCC(C(=O)Oc1c(C(C)(C)C)cc(C)cc1C(C)(C)C)c1ccccc1 (configuration not stated) the results were 2A StopGo -16.0%, RE007 growth inh -3.7% and SARS PLpro yeast -0.2%.
For CC(=O)N1CC2([N+](=O)[O-])CN(C(C)=O)CC([N+](=O)[O-])(C1)C2(C)C the results were 2A StopGo -5.9%, RE007 growth inh -3.8% and SARS PLpro yeast 1.2%.
`O=C(COC(=O)CCc1ccccc1)NCc1ccccc1` gave 2A StopGo -9.7%, RE007 growth inh -2.7% and SARS PLpro yeast 2.9%.
Screening COc1ccc(CC(=O)OCC(=O)NCC2CCCO2)cc1OC (configuration not stated) returned 2A StopGo -8.2%, RE007 growth inh 7.0% and SARS PLpro yeast 13.6%.
`CCOc1ccc(NS(=O)(=O)c2ccc(C(=O)N3CC(C)OC(C)C3)cc2)cc1` (configuration not stated) gave 2A StopGo -16.6%, RE007 growth inh -16.4% and SARS PLpro yeast -0.2%.
`COc1ccc(NC(=O)CN(C)C(=O)CNC(=O)c2sc3ccccc3c2Cl)cc1` gave 2A StopGo 68.3%[activator], RE007 growth inh 0.2% and SARS PLpro yeast -2.4%.
Screening Cc1ccc(C(=O)NC(Cc2cccc(F)c2)C(=O)O)cc1 (configuration not stated) returned 2A StopGo 10.0%, RE007 growth inh 6.5% and SARS PLpro yeast -8.3%.
O=C(OCc1cc(=O)n2c(n1)sc1ccccc12)c1ccc(O)cc1O was read as 2A StopGo 22.6%, RE007 growth inh 11.7% and SARS PLpro yeast -0.2%.
Screening c1ccc2c3n(nc2c1)CCCO3 returned 2A StopGo -5.9%, RE007 growth inh 0.1% and SARS PLpro yeast -5.9%.

2 successive entries already listed, quoted:
`COc1ccc(OC)c(-c2csc(NC(=O)COC(=O)C3CCC3)n2)c1` gave 2A StopGo -10.2%, RE007 growth inh -4.3% and SARS PLpro yeast 0.0%.
COC(=O)C1=C(c2ccc(C(C)=O)cc2)C[C@@H]2CC[C@H]1N2C(=O)NCc1ccco1 was read as 2A StopGo -9.4%, RE007 growth inh 2.0% and SARS PLpro yeast -2.3%.

Next part.
`CCN(C[C@H]1N[C@@](Cc2ccccc2)(C(=O)OC)[C@H]2C(=O)N(Cc3ccccc3)C(=O)[C@@H]12)S(=O)(=O)c1ccc(-c2ccccc2)cc1` gave 2A StopGo -14.8%, RE007 growth inh 2.0% and SARS PLpro yeast 1.6%.
For Cc1cc(=O)oc2cc(OC(C)C(=O)Nc3ccc(C(N)=O)cc3)ccc12 (configuration not stated) the results were 2A StopGo -9.3%, RE007 growth inh -9.2% and SARS PLpro yeast 3.8%.
For COc1ccccc1NS(=O)(=O)c1ccc2oc(SC(C)C(=O)N3CCNC3=O)nc2c1 (configuration not stated) the results were 2A StopGo inconclusive, RE007 growth inh -0.7% and SARS PLpro yeast -4.5%.
`COc1ccc(NC(=O)COC(=O)c2cc3c(s2)CCC3)cc1` gave 2A StopGo -16.9%, RE007 growth inh -15.3% and SARS PLpro yeast -0.7%.
CC1CCCC(NC(=O)COC(=O)c2cccs2)C1C (configuration not stated) was read as 2A StopGo -5.3%, RE007 growth inh 8.4% and SARS PLpro yeast -9.1%.

Source: PubChem (National Center for Advancing Translational Sciences (NCATS))
